Source: PubChem BioAssay
T. gondii HeLa: Toxoplasma gondii ME49Luc growth in HeLa cells, luciferase, no IFN-y, primary screen (AID 1259421) | activity change, negative = inhibition, % | hit rate 9.6% among 6,400 | T. gondii ME49Luc in HeLa, luciferase, 72 h, no IFN-y; stronger effect = lower value; reference of the scale and settings of repeat entries not given here; many of its hits are not listed in these tables;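 active = activity change below -70%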;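 note: about 20 µM from a 10 mM stock diluted 500-fold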
Active calls of the source: *; & = joins results of further samples.

molecule	T. gondii HeLa
OC1(c2ccc(Cl)cc2)c2ccccc2C2=NCCN21 (stereo unspecified)	22
CN1CCCCC1c1ccc(-c2cccnc2)nc1 (stereo unspecified)	8
CCOP(=S)(OCC)Oc1nc(Cl)c(Cl)cc1Cl	-65&7
CN1C2CCC1CC(OC(c1ccccc1)c1ccccc1N)C2 (stereo unspecified)	16
O=c1ccc2cc(O[C@@H]3O[C@H](CO)[C@@H](O)[C@H](O)[C@H]3O)c(O)cc2o1	1
NCCc1c[nH]c2ccc(C(N)=O)cc12	19&7
C[N@@+]1(CC2CC2)CC[C@]23c4c5ccc(O)c4O[C@H]2C(=O)CC[C@]3(O)[C@H]1C5	-6
C[Se]C[C@H](N)C(=O)O	10
O=C1Nc2cc(Cl)c(Cl)cc2N2CCNCC12 (stereo unspecified)	-5&-25
C[C@H](N)Cn1ccc2cc(F)c(Cl)cc21	7
COc1cc2c(cc1O)CC1c3c(cc(O)c(OC)c3-2)CCN1C (stereo unspecified)	-20
C#C[C@]1(O)C=C[C@H]2[C@@H]3CCC4=CC(=O)CC[C@@H]4[C@H]3CC[C@@]21CC	-40
CCC(Oc1ccc(Cl)cc1)C(=O)OC1CC2CCC(C1)N2C (stereo unspecified)	-12&-3
CNCC/C=C/c1cccnc1	9
CC1(C)C2C[C@@H](O)[C@]3(C)C(CC[C@@]4(C)[C@H](c5ccoc5)OC(=O)[C@H]5O[C@]543)[C@@]2(C)[C@@H](O)C[C@H]1O (stereo partly specified)	4
Cc1[nH]cnc1CCN	7
c1cncc([C@@H]2CCCCN2)c1	9
O[C@H]1[C@H](O)[C@@H](O)CN2CC[C@H](O)[C@H]12	14
ClC=C(Cl)Cl	9
O=C1NC(=O)c2c1c1c3ccccc3[nH]c1c1[nH]c3ccccc3c21	-12&-29
CCN(CC)C(C)C(=O)c1ccccc1 (stereo unspecified)	6
C=C(C)CN1CC[C@]23c4c5ccc(O)c4O[C@H]2c2[nH]c4ccccc4c2C[C@@]3(O)C1C5	27&3
CNCC(O)c1ccc(O)cc1 (stereo unspecified)	15&4
Nc1ccc([As](=O)(O)O)cc1	3
CCCCCCCCC(=O)NCc1ccc(O)c(OC)c1	18
C=C[C@H]1CN2CC[C@H]1C[C@@H]2[C@@H](OC(=O)OCC)c1ccnc2ccc(OC)cc12	13&7
CC(CCc1ccccc1)NC(C)C(O)c1ccc(O)cc1 (stereo unspecified)	13&2
CN1C(=O)N(C)C2C1N(C)C(=O)N2C (stereo unspecified)	6
CN1CCCCC1Cn1cc(C(=O)c2cc([N+](=O)[O-])ccc2I)c2ccccc21 (stereo unspecified)	1
CN1C2CCC1CC(OC(c1ccc(F)cc1)c1ccc(F)cc1)C2 (stereo unspecified)	38&22
CCC(CO)NC(=O)C1C=C2c3cccc4[nH]cc(c34)CC2N(C)C1 (stereo unspecified)	-1
c1ccc2sc(SNC3CCCCC3)nc2c1	3
C[C@]12CC[C@H](O)C[C@H]1CC[C@@H]1[C@@H]2CC[C@]2(C)[C@@H](C3=CC(=O)OC3)CC[C@]12O	-87*
CCCN(CCC)CCc1c[nH]c2ccc(C(N)=O)cc12	3
CO[C@H]1CCC(O[C@H]2CC([C@]3(C)CC[C@]4(C[C@H](O)[C@@H](C)[C@@H]([C@@H](C)/C=C(\C)C(=O)[C@H](C)C[C@H](C)C(=O)O)O4)O3)O[C@]3(O[C@@H](C4O[C@@](O)(CO)[C@H](C)C[C@@H]4C)C[C@@H]3C)[C@@H]2C)O[C@@H]1C (stereo partly specified)	-84*
CN1CCc2cc3c(cc2[C@H]1C1OC(=O)c2c1ccc1c2OCO1)OCO3 (stereo partly specified)	10
COC(=O)C=CC(=O)NC1CCC2(O)C3Cc4ccc(O)c5c4C2(CCN3CC2CC2)C1O5 (stereo unspecified)	13
CO[C@H]1[C@H](O)[C@@H](O[C@H]2CC[C@]3(C=O)C4CC[C@]5(C)[C@@H](C6=CC(=O)OC6)CC[C@]5(O)C4CC[C@@H]3C2)O[C@@H](C)[C@@H]1O (stereo partly specified)	-88*
CN1C(=O)CC(=O)N(c2ccccc2)c2cc(Cl)ccc21	7
CC(=O)N1CC[N+](C)(C)CC1	-7
Cc1c(N2C(=O)[C@@H]3[C@H](O)CCN3C2=O)ccc(C#N)c1Cl	9
NP(N)(=O)NC(=O)c1ccc(F)cc1	2
C1=C2CCCN[C@H]2[C@@H]2C[C@H]1[C@H]1CCCCN1C2	-2
NCC(CS(=O)(=O)O)c1ccc(Cl)cc1 (stereo unspecified)	5&6
CC[N+](CC)(CCCNC1=CC(=O)C(NCCC[N+](CC)(CC)Cc2ccccc2)=CC1=O)Cc1ccccc1	9
O=C(O)C(=O)CBr	-22
N#CC(C#N)=Cc1ccc([N+](=O)[O-])c(O)c1	-7
COC[C@@H](NC(C)=O)C(=O)NCc1ccccc1	-51
C[C@H](NC(=O)[C@@H](N)Cc1ccc(O)cc1)C(=O)NCC(=O)N(C)[C@@H](Cc1ccccc1)C(=O)N[C@H](CO)CCS(C)=O (stereo partly specified)	13
c1ccc2sc(C3(N4CCCC4)CCCCC3)cc2c1	4

Going on with the list:
molecule	T. gondii HeLa
C[C@@H]1CN(Cc2ccc(F)cc2)CCN1C(=O)COc1ccc(Cl)cc1NC(N)=O	-3
C[N+]1(C)CCc2cc3c(cc2[C@H]1C1OC(=O)c2c1ccc1c2OCO1)OCO3 (stereo partly specified)	10
C#CC(C)(O)CC (stereo unspecified)	13&19
Cc1ccc2c(c1)Cc1c(C(=O)NC3CCCCC3)nn(-c3ccc(Cl)cc3Cl)c1-2	-3&-23
c1ccc(C2CNCc3ccccc32)cc1 (stereo unspecified)	5
O=C(Nc1ccncc1)C(=O)c1cn(Cc2ccc(Cl)cc2)c2ccccc12	-75*
O=C1CCCC2C3CC(CN12)[C@@H]1CCCCN1C3 (stereo partly specified)	-1&15
CC(N)Cc1ccc(O)cc1 (stereo unspecified)	16
COc1cc2c3cc1Oc1c(OC)c(OC)cc4c1[C@@H](Cc1cccc(c1)Oc1ccc(c(O)c1)C[C@@H]3N(C)CC2)N(C)CC4	-11
N[C@H](CO)Cc1ccccc1	1
COc1ccc2c(c1OC)CN1CCc3cc4c(cc3C1C2)OCO4 (stereo unspecified)	15
CCN(CC)CCOC1CCC2(C)C(=CCC3C4CCC(=O)C4(C)CCC32)C1 (stereo unspecified)	-5
O=C(O)CNC(=O)c1c(O)c2ccccc2n(Cc2ccccc2)c1=O	-6
CC[C@@H](CO)NC(=O)[C@@H]1C=C2c3cccc4[nH]cc(c34)C[C@H]2N(C)C1	13&8
O=c1c2ccccc2[se]n1-c1ccccc1	15&12
Cc1ccc2c(c1)C1(CCN(CCc3nc(-c4ccccc4)oc3C)CC1)OC(=O)N2	-17&1
CCOC(=O)Nc1ccc(NCc2ccc(F)cc2)cc1N	9
COC(=O)NC(=S)Nc1ccccc1NC(=S)NC(=O)OC	12&8
O=C(NC(=O)c1c(F)cccc1F)Nc1cc(Cl)c(OC(F)(F)C(F)C(F)(F)F)cc1Cl (stereo unspecified)	-81*
NC(=S)N/N=C/c1coc2ccccc2c1=O.[Cl][Cu][Cl]	102

A run of entries from the list above, for reference:
molecule	T. gondii HeLa
COc1ccc2c(c1OC)CN1CCc3cc4c(cc3C1C2)OCO4 (stereo unspecified)	15
CCN(CC)CCOC1CCC2(C)C(=CCC3C4CCC(=O)C4(C)CCC32)C1 (stereo unspecified)	-5

Exported with each value named: 3 of the compounds above
Structure: COC(=O)NC(=S)Nc1ccccc1NC(=S)NC(=O)OC
  T. gondii HeLa = 12&8

Structure: O=C(NC(=O)c1c(F)cccc1F)Nc1cc(Cl)c(OC(F)(F)C(F)C(F)(F)F)cc1Cl (stereo unspecified)
  T. gondii HeLa = -81*

Structure: NC(=S)N/N=C/c1coc2ccccc2c1=O.[Cl][Cu][Cl]
  T. gondii HeLa = 102

Ordered by molecular weight (high to low): four of the compounds above.
molecule	T. gondii HeLa
Cc1ccc2c(c1)C1(CCN(CCc3nc(-c4ccccc4)oc3C)CC1)OC(=O)N2	-17&1
COC(=O)NC(=S)Nc1ccccc1NC(=S)NC(=O)OC	12&8
COc1ccc2c(c1OC)CN1CCc3cc4c(cc3C1C2)OCO4 (stereo unspecified)	15
CCOC(=O)Nc1ccc(NCc2ccc(F)cc2)cc1N	9

(further entries)
molecule	T. gondii HeLa
CC(C)=CCC[C@]1(C)C=Cc2c(O)c3c(c(CC=C(C)C)c2O1)O[C@]12C(=C[C@@H]4C[C@H]1C(C)(C)O[C@@]2(CC=C(C)C(=O)O)C4=O)C3=O	-83*
CNCCc1ccc(O)c(O)c1	-1
CN1[C@@H]2CC(O)C[C@H]1[C@@H]1O[C@@H]12 (stereo partly specified)	16
CC1(C)C(=O)C=C[C@@]2(C)C1C[C@@H](O)[C@]1(C)C2CC[C@@]2(C)[C@H](c3ccoc3)OC(=O)[C@H]3O[C@]321 (stereo partly specified)	13
C=CC[C@]1(O)CCC2C3CCC4=CC(=O)CCC4=C3C=C[C@@]21C (stereo partly specified)	11
CC(N)Cc1c[nH]c2ccc(OCc3cccs3)cc12 (stereo unspecified)	-2&2
Oc1ccc2c3c1O[C@H]1c4[nH]c5c(c4C[C@@]4(O)[C@@H](C2)N(CC2CC2)CC[C@]314)C[C@@]1(O)[C@H]2Cc3ccc(O)c4c3[C@@]1(CCN2CC1CC1)[C@H]5O4	3
CCCN(CCC)[C@@H]1CCc2cccc(O)c2C1	2
C=CCC1(CC(C)C)C(=O)NC(=O)NC1=O	-6
COC(=O)[C@@H]1C[C@H](OC(C)=O)C(=O)[C@H]2[C@@]1(C)CC[C@H]1C(=O)O[C@H](c3ccoc3)C[C@]21C	10&12
C1CN2CCC1CC2	15
COc1cc2c(cc1OC)[C@@H]1C(=O)c3ccc4c(c3O[C@@H]1CO2)CC(C(C)C)O4 (stereo partly specified)	-61
NCC(CC(=O)O)c1ccccc1 (stereo unspecified)	-2
C[C@]12N[C@H](Cc3ccccc31)c1ccccc12	9
CCOC(=O)c1ncn2c1C1CCCN1C(=O)c1cc(OC)ccc1-2 (stereo unspecified)	4
C[C@H](Cc1ccc(OCC(=O)O)cc1)NC[C@H](O)c1cccc(Cl)c1	21&4
C[C@]12Cc3cn[nH]c3C[C@@H]1CC[C@@H]1[C@@H]2CC[C@@]2(C)[C@H]1CC[C@]2(C)O	-4
CCC(C)C(=O)O[C@@H]1C[C@@]2(C)[C@H](c3ccoc3)OC(=O)CC23OC2(C)OC34[C@H](OC(=O)C(C)C)[C@@]3(O)[C@@H](OC(=O)C5(C)OC5C)[C@@]5(C)C[C@]3(O)[C@@](C)([C@H]5CC(=O)OC)C14O2 (stereo partly specified)	20
FC(F)(F)c1cccc(N2CCNCC2)c1	-2

Not all compounds are listed. The share of hits here may be higher or lower than overall.
